Screening results from PubChem.
Anaer choline gr = blocks anaerobic gram-negative growth on choline; 0.2% of 55,000 active; Gram-negative bacterium anaerobic choline minimal medium, absorbance growth; active compounds read low; many inactives read as strong as hits in the columns shown; calls only;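 active = growth z-score on choline under -2 at 7 or 20 h with little or no fall on glycerol, limits in tiers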;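 also: stock transfer was 300 nL into about 50 µL; the organism is E. coli; final concentration not given here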
Anaer choline gr early = also measured in Anaer choline gr; calls as there; z-score; measured here: choline growth z-score, timepoint 1;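 score of optical density at 7 h as mean of two plates; lower means less growth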
* marks the source's active call; other numbers are inactive results; i = inactive.

Values run as follows: Anaer choline gr, Anaer choline gr early
CC(C)[C@H](CO)Nc1nc(Nc2ccc(C(=O)O)c(Cl)c2)c2ncn(C(C)C)c2n1
 : i, 0.33
O=c1c2c(-c3ccccc3)csc2ncn1CC1CCCO1 (stereo not given)
 : i, -0.33
CCC(=O)OCC(=O)C1(OC(=O)CC)[C@H](C)C[C@H]2[C@H]3[C@H]([C@@H](O)C[C@@]21C)[C@@]1(C)C=CC(=O)C=C1C[C@H]3Cl (stereo not given in full)
 : i, 0.26
Cn1c(C(=O)N2CCCc3ccccc32)cc2c(=O)oc3ccccc3c21
 : i, 1.08
CC(C)c1ccc(NC(=O)Cn2cnc3c(sc4ncccc43)c2=O)cc1
 : i, 1.35
O=c1n(Cc2cccc(C(F)(F)F)c2)nc2c(S(=O)(=O)N3CCCC3)cccn12
 : i, 1.31
Cc1noc2nc(CCC(=O)NC3CC3)nc(N3CC(C)CC(C)C3)c12 (stereo not given)
 : i, -0.29
O=S(=O)(NCc1cccn1Cc1cccc(F)c1)c1ccc2c(c1)CCCC2
 : i, 1.77
CC1(C)CC(=O)c2cc(C(=O)Nc3cccc(O)c3)c(=O)[nH]c2C1
 : i, -2.71
Cc1c(CCNC(=O)c2ccc(F)c(F)c2)sc2nc(-c3ccc(Cl)cc3)nn12
 : i, 0.28

Of the compounds above, these contain sulfur:
Values run as follows: Anaer choline gr, Anaer choline gr early
O=c1c2c(-c3ccccc3)csc2ncn1CC1CCCO1 (stereo not given)
 : i, -0.33
CC(C)c1ccc(NC(=O)Cn2cnc3c(sc4ncccc43)c2=O)cc1
 : i, 1.35
O=c1n(Cc2cccc(C(F)(F)F)c2)nc2c(S(=O)(=O)N3CCCC3)cccn12
 : i, 1.31
O=S(=O)(NCc1cccn1Cc1cccc(F)c1)c1ccc2c(c1)CCCC2
 : i, 1.77
Cc1c(CCNC(=O)c2ccc(F)c(F)c2)sc2nc(-c3ccc(Cl)cc3)nn12
 : i, 0.28

Additional entries follow:
Values run as follows: Anaer choline gr, Anaer choline gr early
CCNc1cc(C)nc(Nc2ccc(NC(C)=O)cc2)n1
 : i, 0.48
CCOc1ccc(CN(CC2CCCO2)S(=O)(=O)c2ccc(S(=O)(=O)N3CCCCC3)cc2)cc1 (stereo not given)
 : i, 0.79
Cc1[nH]c(=O)[nH]c(=O)c1C1N2CC3(C(C)C)CN1CC(C(C)C)(C2)C3=O (stereo not given)
 : i, 0.02
CCn1c(=O)n(-c2ccc(F)cc2)c2nc(-c3cc(Br)ccc3F)nc(C(N)=O)c21
 : i, -0.38
CCOC(=O)c1ccccc1NC(=O)CSc1cc(C)[nH]c(=O)n1
 : i, 0.44
CC(=O)N1CCCSc2ccc(S(=O)(=O)NC3CCCc4ccccc43)cc21 (stereo not given)
 : i, -1.24
Cc1nc(-c2cc(S(=O)(=O)NCCc3ccc(Cl)cc3)c(C)s2)sc1C
 : i, 0.5
Cc1ccc(-n2c(=O)[nH]c3cc(-c4nc(-c5cccc(C)c5)no4)ccc3c2=O)cc1
 : i, -0.11
COc1ccc(NC(=O)c2ccc(-n3cnc4c(sc5nc(C)cc(C)c54)c3=O)cc2)cc1Cl
 : i, 0.09
O=S1(=O)C[C@H](NCc2ccc3c(c2)OCO3)[C@@H](S(=O)(=O)c2ccc(F)cc2)C1
 : i, 1.44
CCc1ccc(NC(=O)CN2C(=O)CCSc3ccccc32)cc1
 : i, 0.84
COc1ccc(NC(=O)c2cccc(N3CCCS3(=O)=O)c2)cc1OC
 : i, -0.15
Cc1nc(Nc2ccc(NC(=O)Nc3ccc4c(c3)OCCO4)cc2)cc(N(C)C)n1
 : i, -0.84
CN1CCN(CC(=O)Nc2sc3c(c2C#N)CCCC3)CC1
 : i, -1.77
Cc1cccc(NC(=O)c2ccc3[nH]c(C)cc(=O)c3c2)c1
 : i, -1.24
CCOC(=O)c1cc(S(=O)(=O)N2CCCC2C(=O)N2CCc3ccccc32)cn1C (stereo not given)
 : i, -0.13
Cc1ccc(S(=O)(=O)N2Cc3ccccc3CC2C(=O)NCc2cccc(C)c2)cc1 (stereo not given)
 : i, -1.02
CCN(CC)CCNC(=O)COc1ccc(OC)cc1
 : i, 0.64
O=C(CSc1nnc(NC(=O)NC2CCCCC2)s1)Nc1ccc2c(c1)OCCO2
 : i, 0.35
CCN1c2cc(C)ccc2-n2cccc2C12CCN(S(=O)(=O)c1ccc(OC)cc1)CC2
 : i, -1.51
O=C(CNC(=O)c1ccccc1F)OCc1cc(=O)n2ccsc2n1
 : i, 0.44
Cc1ccc(C(=O)NCCc2nc3cccnc3n2C2CCCCC2)cc1
 : i, -0.03
CC(=O)N1CCc2cc(C(O)CN3CCN(c4ccc(Cl)cc4)CC3)ccc21 (stereo not given)
 : i, -0.81
COc1ccccc1CNC1=NCCNC12CCN(S(=O)(=O)c1cccs1)CC2
 : i, -1.38
Cc1ccc(CCNC(=O)c2cnc3ccc(S(=O)(=O)N4CCOCC4)cc3c2Cl)cc1
 : i, 0.64
CN(C)c1ccc(NC(=O)c2nc(-c3ccccc3)n(-c3ccc(F)cc3)n2)cc1
 : i, -0.15
Cc1cc(C)c(S(=O)(=O)N2CCc3c(c(COCc4ccccc4)nn3C)C2)cc1C
 : i, 2.06
COc1cccc(CNC(=O)C2CCCN2c2nnc(N3CCCCC3=O)s2)c1 (stereo not given)
 : i, 0.14
CCOc1ccccc1-c1noc(-c2nn(-c3ccc(C)cc3)ccc2=O)n1
 : i, -0.22
Cc1cc(N2CCOCC2)nc(N2CCN(S(=O)(=O)c3ccc(Br)cc3)CC2)n1
 : i, 0.16
CC[C@@H]1Cc2cc(O)ccc2C2=C1c1ccc(O)cc1C[C@H]2CC
 : i, 0.07
O=C(NCCO)c1nc(-c2ccccc2)n(-c2ccccc2Cl)n1
 : i, -2.2
O=C(NC1CCCCC1)N1CCc2cc(S(=O)(=O)Nc3ccc4c(c3)OCO4)ccc21
 : i, 1.08
C=CCN(CC=C)c1cc(C(C)C)nc2nc(-c3cccnc3)nn12
 : i, -1.61
Cc1cc(C)cc(NC(=O)Cn2c(=O)c(CCC(=O)NC3CCCC3)nc3ccccc32)c1
 : i, 0.93
O=C(c1cccc(Cl)c1)N1CCN(Cc2noc(-c3ccccc3)n2)CC1
 : i, 0.22
COCC(=O)Nc1ccc2nc3c(c(Nc4ccc(OC)c(OC)c4)c2c1)CCCC3
 : i, 0.05
Cc1cc(N2CCC(C)CC2)nc2ccc(NC(=O)CCC(=O)N3CCCC(C)C3)cc12 (stereo not given)
 : i, 1.03
COC(=O)c1sccc1NC(=O)N1Cc2c(sc3c2CCN(C)C3)-n2cccc2C1c1ccc(OC)cc1 (stereo not given)
 : i, 0.42
Nc1nc(Nc2ccccc2)nc2c1ncn2[C@@H]1O[C@H](CO)[C@H](O)C1O (stereo not given in full)
 : i, -0.08
Cc1ccc(NC(=O)c2ccc(-n3nnc4cccnc43)cc2)c(Cl)c1
 : i, 0.92
Cc1cccc(N2CCN(C(=O)c3cc(S(=O)(=O)N4CCCC4)ccc3Cl)CC2)c1C
 : i, -0.43
CN(C)C(=O)c1ccc2c(c1)nc(CN1CCN(S(=O)(=O)N(C)C)CC1)n2C
 : i, 0.02
O=C(C1CCN(c2cc(N3CCOCC3)ncn2)CC1)N1CCC2(CC1)OCCO2
 : i, 2.01
COc1ccc(S(=O)(=O)N2CC=C(c3c(C)n(Cc4ccc(F)cc4)c4ccccc34)CC2)cc1OC
 : i, 1.5
CCOC(=O)c1noc2nc(C)n(Cc3cc(=O)n4ccccc4n3)c(=O)c12
 : i, 0.03
CC(C)N1CCN(C(=O)c2cc3c(s2)CN(C2CC2)C3)CC1
 : i, 0.38
CC1CCCN(CC2CCN(S(=O)(=O)c3ccc(F)cc3Cl)CC2)C1 (stereo not given)
 : i, -1.79
CC1CCN(C(=O)CCn2c(C(F)(F)F)nc3cc(S(=O)(=O)N(C)C)ccc32)CC1
 : i, 0.15
Cn1nc(C(=O)NCc2ccccc2)c2c1CCN(C(=O)CC1CCCC1)C2
 : i, -1.29

Quoted from the listing.
Anaer choline gr early result of CC1CCN(C(=O)CCn2c(C(F)(F)F)nc3cc(S(=O)(=O)N(C)C)ccc32)CC1 is entered as 0.15
Anaer choline gr early result of CN(C)C(=O)c1ccc2c(c1)nc(CN1CCN(S(=O)(=O)N(C)C)CC1)n2C is entered as 0.02
Anaer choline gr early result of CCOC(=O)c1noc2nc(C)n(Cc3cc(=O)n4ccccc4n3)c(=O)c12 is entered as 0.03

New compounds follow
SMILES,Anaer choline gr,Anaer choline gr early
c1ccc(C(c2ccccc2)c2nn3c(-c4cccnc4)nnc3s2)cc1,i,0.08
O=c1c2c(-c3ccccc3)csc2ncn1Cc1ccc2c(c1)OCO2,i,0.81
Cc1cccc(-c2cnc(N3CCC(C(=O)NC4CCCCC4)CC3)nc2)c1,i,-1.74
COc1ccc(OCc2nnc3sc(-c4cc(OC)cc(OC)c4)nn23)cc1,i,0.63
CC(C)CCNC(=O)Nc1cc2c(cc1N1CCOCC1)n(C)c(=O)n2C,i,2
O=C(NC1CCCc2ccccc21)C1CCCN(c2ccnc(-c3ccc(F)cc3)n2)C1 (stereo not given),i,0.17
Cc1cccc(N2CCN(S(=O)(=O)c3ccc4c(c3)CC(=O)N4C)CC2)c1C,i,0.88
O=C(c1cccc(-c2nc(-c3ccc(F)cc3)no2)c1)N1CCN(c2ccccn2)CC1,i,-0.11
COCCN1CCN(C2CCN(C(=O)Nc3ccccc3)CC2)C(=O)C1=O,i,-0.87
COc1cccc(-n2ccnc2SCc2nc(-c3ccccc3)no2)c1,i,0.33
CCCC(=O)Nc1cccc(N2CCn3c(nc4cc(Cl)ccc43)C2)c1,i,0.65
CCOc1ccc(N(C(C)C(=O)N2CCN(c3ccccc3)CC2)S(C)(=O)=O)cc1 (stereo not given),i,-0.26
O=C(O)C1Nc2ccc(Cl)cc2C2C=CCC12 (stereo not given),i,2.01
O=C(c1csc(-c2ccncc2)n1)N1CCN(c2ccccn2)CC1,i,-0.42
COc1ccc(CC(=O)N2CCc3cc(-c4noc(C)n4)ccc32)cc1,i,0.85
Cc1ccc(S(=O)(=O)Nc2c(-n3cnnc3)nn(C)c2C)cc1,i,-1.26
Cn1cc(-c2[nH]c3cc(NC(=O)C(N)C4CCCCC4)cc4c3c2C=NNC4=O)cn1 (stereo not given),i,0.59
Cn1nc(C(=O)NCc2ccc3c(c2)OCO3)c2c1-c1cc(Cl)ccc1SC2,i,0.74
CC(NC(=O)CSc1nnc(-c2ccncc2)o1)c1nc2ccccc2[nH]1 (stereo not given),i,0.02
Cn1cc(S(=O)(=O)c2ccccc2)c(=O)c2cc(F)c(N3CCN(Cc4ccccc4)CC3)cc21,i,0.23
Brc1cncc(-c2nc(-c3ccc(-c4csc(C5CC5)n4)cc3)no2)c1,i,-0.84
CC(C)NC(=O)CSc1nnc(-c2ccncc2)o1,i,-3.21
CN1C(=O)COc2cc(-c3noc(C(=O)NCCC4=CCCCC4)n3)ccc21,i,1.28
OCc1nc2ccccc2n1CCOc1ccc(Cl)cc1,i,0.44
COc1ccc(S(=O)(=O)[C@H]2CS(=O)(=O)C[C@@H]2NCC2CCCO2)cc1 (stereo not given in full),i,0.11
CC1Cc2cccc3c(=O)c(C(=O)N4CCc5ccccc5C4)cn1c23 (stereo not given),i,0.93
CCOc1ccc(-c2nonc2NC(=O)C(CC)CC)cc1C,i,-0.08
C=CCN(Cc1nc(-c2ccc(C)cc2)no1)C(=O)Nc1ccccc1C,i,0.85
CN1C(=O)C(C)(C)c2cc(S(=O)(=O)N3CCN(c4ccccc4)CC3)ccc21,i,-1.05
Nc1nc2c(c(=O)[nH]1)C(c1ccc(OCc3ccccc3)cc1)CC(=O)N2 (stereo not given),i,0.34
CC(NS(=O)(=O)c1ccc2c(c1)CCN2C(=O)N1CCCC1)C(=O)Nc1nccs1 (stereo not given),i,0.73
COc1ccc(-c2noc(N3CCC(N4CCCCC4)CC3)n2)cc1,i,1.27
Cc1nc2cc(NC(=O)c3ccc(S(=O)(=O)N4CCCC(C)C4)cc3)ccc2s1 (stereo not given),i,0.61
COc1cc(C2C(=O)N(C3CCCCC3)CC(=O)N2CC2COc3ccccc3O2)ccc1OC(C)C (stereo not given),i,1.02
COc1ccc(NC(=O)CN2C(=O)C(C(=O)N3CCCC3)Sc3ccccc32)cc1OC (stereo not given),i,0.31
Cc1ccccc1S(=O)(=O)N1CCC2(CC1)NCCN=C2NCc1cc(F)cc(F)c1,i,-0.01
Cc1ccc(Nc2nc(-c3ccc(C)cc3C)cs2)nc1,i,1.33
COc1cccc(NC(=O)c2ccnc(N3CCC(C(=O)NCCc4ccc(Cl)cc4)CC3)c2)c1,i,0.58
CCCCSc1nnc2c(n1)OC(c1ccccc1F)N(C(C)=O)c1ccccc1-2 (stereo not given),i,1.64
CCN1CCN(S(=O)(=O)c2c(C)[nH]c(-c3nnc(C4CCC4)o3)c2C)CC1,i,-0.31

4 entries already listed, ordered by molar mass, ascending.
SMILES,Anaer choline gr,Anaer choline gr early
CC(C)c1ccc(NC(=O)Cn2cnc3c(sc4ncccc43)c2=O)cc1,i,1.35
CCOC(=O)c1noc2nc(C)n(Cc3cc(=O)n4ccccc4n3)c(=O)c12,i,0.03
CCn1c(=O)n(-c2ccc(F)cc2)c2nc(-c3cc(Br)ccc3F)nc(C(N)=O)c21,i,-0.38
COc1ccc(S(=O)(=O)N2CC=C(c3c(C)n(Cc4ccc(F)cc4)c4ccccc34)CC2)cc1OC,i,1.5

Following part.
SMILES,Anaer choline gr,Anaer choline gr early
Cc1ccc(S(=O)(=O)N2CCc3c(c(-c4nc(-c5ccccc5)no4)nn3C)C2)cc1Cl,i,-0.94
CCOc1ccc(Cn2c(=O)c3sccc3n3c(SCc4ccccc4F)nnc23)cc1OCC,i,-0.73
COc1ccc(S(=O)(=O)N2CCN(c3nc(C)cc(N4CCOCC4)n3)CC2)cc1OC,i,-0.71
O=S(=O)(Nc1nc2n(n1)C(c1ccc(Cl)cc1)C=C(c1ccccc1)N2)c1ccccc1 (stereo not given),i,-0.02

A portion of the library (hit frequency here may not be typical).
